High-throughput results as filed in PubChem.
Menin-MLL FL inh – qHTS Assay for Inhibitors Targeting the Menin-MLL Interaction in MLL Related Leukemias: Competition With Fluorescein Labeled MLL-derived Peptide; Fluorescence polarization, fluorescein-MLL peptide displacement from menin; AID 1766, 2009; FP activity change, % at 61.4 µM; 290,000 tested, under 10 active; inconclusive = falling polarisation curve, or a change in total fluorescence; inactive = total fluorescence flat and polarisation flat or rising; no compound was filed as active; the % refers to the polarisation; negative = inhibition;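 further: % of control where 0% means no effect; inhibitors lower the polarisation; unlabelled MLL peptide was the positive control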
ClpP mod – qHTS Assay for Activators of ClpP; purified B. subtilis ClpP, FRET peptide cleavage, 20 min; hit rate 1.9% among 340,000; ATP-dependent Clp protease proteolytic subunit (Bacillus subtilis (strain 168)), P80244; Potency, µM (doses to about 57.5 µM), for inactives: top-dose activity change, negative = active; active = well fitted falling curve with a large enough effect; inconclusive = small, poorly fitted or top-dose-only effect; inactive = no such curve, though single readings can be large or run the other way; further: potency means the concentration at half of the fitted maximal effect; the source files actives as falling curves though it sought activators and does not explain the sign; nearly all actives have a fitted effect of over 65% in size; many hits overshoot -100%
Target sequence (P80244 whole entry, looked up): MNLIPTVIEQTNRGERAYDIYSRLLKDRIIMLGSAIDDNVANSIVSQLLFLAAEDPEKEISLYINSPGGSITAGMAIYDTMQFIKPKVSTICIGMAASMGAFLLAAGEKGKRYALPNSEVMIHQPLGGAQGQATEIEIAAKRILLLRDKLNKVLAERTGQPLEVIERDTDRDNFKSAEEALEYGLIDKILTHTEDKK
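Buffer: 100 mM Tris/HCl pH8, 100 mM KCl, 0.05% low protease BSA, 2.5% glycerol, 0.01% Tween-20. ClpP 10 microg/mL final; 20 min RT; delta FRET normalized to ADEP and DMSO controls.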
Sfp inh – qHTS Assay for Inhibitors of Bacillus subtilis Sfp phosphopantetheinyl transferase (PPTase); Biochemical Sfp PPTase activity, qHTS; Potency, µM, without a hit: max response, negative = inhibition, usual class: inhibitors; hit rate 3.5% among 310,000; AID 1490, 2009; active means well fitted inhibition curve with a large enough effect; inconclusive means small, poorly fitted or top-dose-only effect, or another doubt; inactive means no such curve, though single readings can be large or run the other way;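 further: the enzyme is Sfp with the accession as filed and its product quenches rhodamine fluorescence; potency means the concentration at half of the fitted maximal effect; 0% = enzyme reaction without inhibitor and -100% = no enzyme wells; top concentration of the series not given in the record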
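Step 1, compound plus 15 nM Sfp-PPTase, 15 min, room temperature. Step 2, add rhodamine-CoA (5 uM) and BHQ-2-YbbR (12.5 uM). Step 3, read 525/598 nm fluorescence at 0 and 30 min.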
TRPML1 inh – qHTS for Inhibitors of the Human Mucolipin Transient Receptor Potential 1 (TRPML1); hit rate 0.02% among 390,000; Mucolipin-1 (Homo sapiens), Q9GZU1; activity change, negative = inhibition, % (no concentration beside the values); TRPML1-inducible cells, Ca2+ dye fluorescence, FDSS; active compounds read low; inhibition of EC80 agonist-evoked calcium signal; in the data active means activity change below about -50%; inconclusive means about -30% to -50%; inactive means above about -30%;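 further: stimulus is agonist 54-4 at its EC80 concentration; on the % scale 0 is the no-effect control and ±100 the full control effect; compound concentration not given in the record; the text of the record puts the active cut at -80%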
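Calcium fluorescence in TRPML1-DL cells induced overnight with Tet: a 110 s read after compound pin addition, then a 110 s antagonist read after challenge with 54-4 at 4 uM final (EC80).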
gsp agonist – qHTS for Agonist of gsp, the Etiologic Mutation Responsible for Fibrous Dysplasia/McCune-Albright Syndrome: qHTS. Potency, µM (top dose mostly 76.9 µM), without a hit: at the top dose activation (cAMP increase), most hits filed as activators. hit rate 0.13% among 340,000. gsp mutant cells, cAMP HTRF, 30 min; control for the full effect not named in the record; active = well fitted activation curve with a large enough effect; inconclusive = small, poorly fitted or top-dose-only effect, or another doubt; inactive = no such curve, though single readings can be large or run the other way; cell line not stated here;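 further: phosphodiesterase inhibitor Ro 20-1724 added with compounds to block cAMP breakdown; potency means the concentration at half of the fitted maximal effect; nearly all actives have a fitted effect of over 60% in size; about a fifth of the inactives were tested at one dose only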
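Cells in DMEM/10% FBS with G418 were pretreated with compounds in DMSO plus […] (300 uM stock) for 30 min at 37C. cAMP was measured by HTRF (cAMP-d2 plus anti-cAMP antibody-K) after 30 min at room temperature.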
TRPV1 potentiator – HTS Assay for Compounds that Act as Potentiators of the Vanilloid Receptor 1; potentiation, % at 8.33 µM; TRPV1-expressing cells, Fluo-8 calcium influx, capsaicin EC20 potentiation; host cell line not named in the record; control for the full effect not named in the record; hit rate 0.02% among 320,000; AID 540277, 2011; active means potentiation above 80%; inconclusive means 30% to 80%; inactive means below 30%; further: 0% is about no effect
Target sequence (Q8NER1 whole entry, looked up): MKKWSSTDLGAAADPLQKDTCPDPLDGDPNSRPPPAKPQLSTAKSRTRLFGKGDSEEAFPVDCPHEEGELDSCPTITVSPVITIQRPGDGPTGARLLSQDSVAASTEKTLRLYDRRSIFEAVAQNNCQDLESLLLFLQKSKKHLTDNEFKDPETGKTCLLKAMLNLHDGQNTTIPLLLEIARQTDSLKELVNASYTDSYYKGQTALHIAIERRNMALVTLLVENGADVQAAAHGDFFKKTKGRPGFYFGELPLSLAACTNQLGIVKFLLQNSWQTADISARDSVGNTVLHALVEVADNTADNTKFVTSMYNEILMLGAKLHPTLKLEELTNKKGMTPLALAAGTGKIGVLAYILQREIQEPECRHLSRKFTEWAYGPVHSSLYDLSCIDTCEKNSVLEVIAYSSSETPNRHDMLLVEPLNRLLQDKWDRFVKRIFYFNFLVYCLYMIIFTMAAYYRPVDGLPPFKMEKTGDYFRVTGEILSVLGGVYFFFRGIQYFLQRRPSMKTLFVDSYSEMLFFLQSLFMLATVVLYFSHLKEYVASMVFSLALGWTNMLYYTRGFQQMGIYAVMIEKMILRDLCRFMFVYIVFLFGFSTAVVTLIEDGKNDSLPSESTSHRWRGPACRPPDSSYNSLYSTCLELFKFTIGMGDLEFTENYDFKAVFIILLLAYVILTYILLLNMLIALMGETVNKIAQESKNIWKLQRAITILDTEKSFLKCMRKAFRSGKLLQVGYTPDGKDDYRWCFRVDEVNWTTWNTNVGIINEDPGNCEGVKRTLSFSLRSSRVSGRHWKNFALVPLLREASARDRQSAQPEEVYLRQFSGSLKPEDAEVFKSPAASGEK
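TRPV1-expressing cells were cultured overnight at 35.5C and loaded with Fluo-8 calcium dye for 40 to 90 min at room temperature. After a 10 s baseline, compound was added and calcium influx was read kinetically for 3 min (ex 480/em 520 nm).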
gsp antagonist – qHTS for Antagonists of gsp, the Etiologic Mutation Responsible for Fibrous Dysplasia/McCune-Albright Syndrome: qHTS | gsp-mutant cells, cAMP HTRF, 30 min; control for the full effect not named in the record | hit rate 0.4% among 340,000 | AID 624288, 2012 | Potency, µM (doses to about 76.9 µM), for the others: at the top dose activity change, negative = inhibition, usual class: inhibitors; active = falling curve of any shape with a large fitted effect; inconclusive = falling curve, mostly with a smaller effect; inactive = flat or rising curve; cell line not stated here;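 further: intracellular cAMP measured with PDE inhibitor Ro 20-1724 present during compound exposure; potency means the concentration at half of the fitted maximal effect; on the % scale 0 is the no-effect control and ±100 the full control effect; nearly all actives have a fitted effect of over 65% in size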
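G418-selected cells were plated in DMEM/10% FBS for 16-24 h at 37C, then treated with compounds plus the PDE inhibitor […] (300 uM solution added) for 30 min at 37C. Intracellular cAMP was measured by HTRF after 30 min lysis at room temperature.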
* marks the source's active call; other numbers are inactive results; ? = inconclusive; nt = no result given; [ ] = dose if it differs, or a comment.

Order of values – Menin-MLL FL inh	ClpP mod	Sfp inh	TRPML1 inh	gsp agonist	TRPV1 potentiator	gsp antagonist
1	O=C(NCCc1cnc[nH]1)Nc1cccc(C(F)(F)F)c1
→ -2.7	-2.4%	14.5%	-0.1	?	-1.4	10.4%
2	CC(C)(C)C(=O)C(C(c1ccccc1)N1CCOCC1)N1CCOCC1 (centres undefined)
→ nt	nt	nt	-1.3	-4.9%	nt	-14.1%
3	CCOC(=O)c1c(NC(=S)NC(=O)/C=C/c2cccs2)sc(C)c1C
→ 5.8	3.3%	-17.2%	0.1	0.2%	-15.9	-13.5%
4	c1ccc(-c2cc3nccc(-c4ccccn4)n3n2)cc1
→ 1.0	1.4%	3.5%	-0.2	-5.0%	3.6	-0.8%
5	CCc1nnc(NC(=O)CSc2nnc3nc(C)cc(C)n23)s1
→ nt	nt	10.2%	-17.0	?	0.2	16.2%
6	Cc1c(C#N)c(NC(=O)c2ccccc2)n(Cc2ccccc2)c1C
→ 2.4	?	-4.4%	-17.9	-7.6%	15.2	-9.5%
7	CCOc1ccccc1N1CCN(C/C=C/c2ccc(N(C)C)cc2)CC1
→ 3.0	28.2µM*	-29.6%	-11.4	7.8%	4.2	-7.5%
8	COc1ccccc1NC(=O)C(C)Sc1nc2ccccc2c(=O)n1CC1CCCO1 (centres undefined)
→ nt	-2.6%	nt	-12.4	7.2%	-21.8	-10.8%
9	COCCCNc1nc(SCc2ccccc2)nc2sc3c(c12)CCC3
→ 2.3	-1.9%	-12.5%	55.3	14.8%	19.1	-18.7%
10	O=C(Nc1ccc(S(=O)(=O)Nc2ncccn2)cc1)c1ccccc1NS(=O)(=O)c1ccc(Cl)cc1
→ ?	3.1%	23.3%	-2.1	16.8%	12.0	-0.3%
11	CCOC(=O)c1cn(-c2nc(-c3ccc(Cl)c(Cl)c3)cs2)c2c(F)c(N3CCOCC3)c(F)cc2c1=O
→ 0.6	0.9%	-1.9%	10.9	6.1%[15.4 µM]	0.2	10.8%
12	Fc1ccc(N2CCN(Cc3cnc(N4CCOCC4)s3)CC2)cc1
→ -1.6	nt	3.9%	11.4	15.3%[15.4 µM]	-17.5	10.5%
13	CCOC(=O)c1sc2c(c1C)C(c1cccs1)C1=C(CCCC1=O)N2 (centres undefined)
→ 8.9	4.47µM*	4.4%	21.6	-12.8%	-10.2	-8.2%
14	COCCn1c(C)cc(C(=O)CN2C(=O)NC3(CCCCCCC3)C2=O)c1C
→ 2.3	0.9%	-11.4%	-6.1	-18.0%	-8.2	-14.8%
15	COc1cccc(N2CCN(c3ncnc4c3cnn4-c3ccc(C)cc3C)CC2)c1
→ 3.2	-29.1%	-5.8%	12.7	2.2%	nt	7.94µM*
16	N#CCO/N=C(\c1ccccc1)c1ccncc1
→ 1.5	-1.4%	-14.3%	-9.1	18.2%	-4.1	-11.0%
17	O=C(NCCCl)Nc1cccc(Br)c1
→ -0.3	nt	0.1%	11.4	5.6%	-0.1	4.1%
18	COc1cccc(OCCSc2nnc3sc4ccccc4n23)c1
→ 3.4	-1.9%	-20.0%	3.1	7.8%	8.4	4.2%
19	COc1ccc(N2CCN(S(=O)(=O)c3ccc(C(=O)NC4CCCC4)cc3)CC2)cc1
→ 0.4	-1.3%	23.9%	-14.2	11.2%	-1.7	5.0%
20	O=C(CSc1nc(-c2ccc(F)cc2)cc(C(F)(F)F)n1)Nc1ccc2c(c1)OCO2
→ 9.9	-2.2%	9.8%	0.4	26.8%	7.6	-2.8%
21	COc1cc(NC(=O)COC(=O)CC2CC3CCC2C3)cc(OC)c1 (centres undefined)
→ nt	-1.7%	nt	23.1	-57.6%[inhibitor]	nt	-4.8%
22	CC1CCCC(C)N1CCCNC(=O)c1cc2c(=O)n(C)c3ccccc3c2n1C (centres undefined)
→ 1.3	4.0%	-1.5%	2.4	-13.6%	-2.6	8.9%
23	O=C(CCC1CCCN(C(=O)c2cccnc2)C1)NCc1ccccc1F (centres undefined)
→ nt	1.9%	12.1%	-1.2	-18.8%	6.4	-0.1%
24	CC(=O)NCC1(O)CCCC(C)C1 (centres undefined)
→ -0.2	nt	24.0%	-2.8	-29.9%[15.4 µM]	1.2	2.4%
25	CCCC1(c2ccccc2)NC(=O)N(CC(=O)NCc2ccc(OC)cc2)C1=O (centres undefined)
→ -9.8	1.8%	15.1%	-4.1	39.6%	8.6	-5.6%
26	C/C(=N\NC(=O)CSc1nc2ccccc2o1)c1ccc(O)cc1
→ -1.8	nt	?	10.4	0.6%[15.4 µM]	1.4	-12.8%
27	Cc1ccc(C)c(C(=O)CN2C(=O)c3ccccc3C2=O)c1
→ 1.0	nt	7.7%	10.4	?	-2.4	-1.2%
28	CCC(C)[C@H](NC(=O)OC(C)(C)C)C(=O)N/N=C/c1ccc2cc(OC)ccc2n1 (some centres undefined)
→ -2.0	?	3.7%	27.5	-13.6%	7.0	4.5%
29	Cc1ccc2nc(C)cc(N/N=C/c3cccc(O)c3)c2c1
→ -0.3	0.6%	2.7%	13.4	5.4%[15.4 µM]	6.3	3.7%
30	CCNC(=O)O/N=C(\C)c1sc(-c2ccc(Cl)cc2)nc1C
→ 5.1	-1.3%	-19.9%	3.4	3.8%	-11.6	-24.0%

Given as tab-separated lines: part of the list above.
no.	canonical_smiles	Menin-MLL FL inh	ClpP mod	Sfp inh	TRPML1 inh	gsp agonist	TRPV1 potentiator	gsp antagonist
27	Cc1ccc(C)c(C(=O)CN2C(=O)c3ccccc3C2=O)c1	1.0	nt	7.7%	10.4	?	-2.4	-1.2%
28	CCC(C)[C@H](NC(=O)OC(C)(C)C)C(=O)N/N=C/c1ccc2cc(OC)ccc2n1 (some centres undefined)	-2.0	?	3.7%	27.5	-13.6%	7.0	4.5%

Next entries
Order of values – Menin-MLL FL inh	ClpP mod	Sfp inh	TRPML1 inh	gsp agonist	TRPV1 potentiator	gsp antagonist
31	O=C(Cn1cnc2c(NCc3ccccc3)ncnc21)NCCCc1ccccc1
→ nt	0.6%	nt	14.9	nt	nt	1.0%
32	COc1ccccc1CN1CC(C(=O)N2CCC(OC)CC2)CCC1=O (centres undefined)
→ nt	0.8%	17.4%	-2.0	-16.8%	11.1	5.0%
33	O=C(NCCO)C(c1ccccc1)c1ccccc1
→ 2.1	-0.9%	4.8%	4.6	1.6%	15.0	1.3%
34	S=C(Nc1ccc(Cl)c(Cl)c1)NC1CCCCC1
→ 3.8	-2.6%	10.7%	11.8	6.1%	17.9	?
35	Cc1c(/C=N/NC(=O)CNc2ccccc2)c2ccccn2c1C(=O)c1ccc(Cl)cc1
→ 3.4	-2.5%	2.8%	2.8	?	-7.1	-2.1%
36	Cn1cccc1C(=O)OCC(=O)NCCc1ccc(S(N)(=O)=O)cc1
→ nt	-7.2%	nt	-1.4	-10.3%	nt	7.4%
37	O=C(Nc1nnc(COc2ccccc2)s1)C1CCN(S(=O)(=O)c2ccc(Cl)cc2)CC1
→ -1.2	-6.0%	14.3%	36.5	16.0%	0.0	5.0%
38	Cc1ccc(N(C(=O)c2ccco2)C(C(=O)NC2CCCC2)c2cccnc2)cc1 (centres undefined)
→ -3.1	nt	16.3%	0.1	-19.7%	-4.9	-2.4%
39	COc1ccc2c(C)cc(SCC(=O)NCC3CCCO3)nc2c1 (centres undefined)
→ nt	?	nt	-5.9	?	-8.6	1.4%
40	Cc1ccc(NC(=O)Nc2cc(C)on2)cc1
→ 0.8	nt	12.6%	-3.6	1.4%[15.4 µM]	-19.6	4.9%
41	CC(C)CS(=O)(=O)C1=NSC2=NC(=O)/C(=C\c3ccc(OC(=O)c4ccco4)cc3)C(=N)N21
→ nt	0.5%	-16.4%	5.2	10.0%	25.9	?
42	Cc1occc1C(=O)N/N=C/C1=C(N2CCOCC2)C(=C\c2ccc(Cl)cc2Cl)/CC1
→ 18.6	-3.1%	-3.0%	-6.8	-0.2%	13.2	2.1%
43	O=C(NCC(=O)N(c1cccnc1)C(C(=O)NC1CCCCC1)c1ccccc1F)c1ccco1 (centres undefined)
→ -4.9	nt	12.2%	-17.0	8.6%	-7.8	7.6%
44	COc1ccc(N(C)C2=NS(=O)(=O)c3ccccc32)cc1
→ -1.1	1.8%	-1.2%	-2.4	5.3%	-4.2	1.1%
45	CC(C)C[C@@H](CNCC(=O)[C@H](Cc1c[nH]c2ccccc12)NC(=O)c1[nH]cnc1C(=O)N[C@@H](C)CN)NC(=O)c1nc[nH]c1C(=O)N[C@@H](CC(=O)O)C(=O)O
→ nt	0.8%	nt	-11.5	nt	nt	9.9%
46	CCOC(=O)C1CCN(c2cc3c(cc2NC(=O)c2ccccc2)n(C)c(=O)n3C)CC1
→ 1.7	2.3%	3.6%	53.0	?	-6.6	-15.9%
47	CCOC(=O)c1cnc[nH]c1=O
→ nt	nt	nt	4.2	4.0%	nt	3.7%
48	Cc1cc(NC(=O)CCCC(=O)NCc2cccs2)no1
→ 2.3	-0.3%	5.4%	11.6	-4.1%	-1.8	-9.2%
49	Cc1c(Cl)ccc2c(C(=O)NC(C)c3ccncc3)cc(-c3ccncc3)nc12 (centres undefined)
→ 7.0	nt	-1.1%	nt	nt	6.6	nt
50	Cc1cc(-c2ccc(NS(=O)(=O)c3ccccc3)c(C)c2)ccc1NS(=O)(=O)c1ccccc1
→ nt	nt	nt	83.2	-19.5%	nt	-18.5%
